Calb FLC: C. albicans growth modulation with fluconazole. C. albicans CaCi-2 (fluconazole-resistant clinical isolate) + fluconazole, Alamar Blue growth, 48 h. growth inhibition, % (test concentration not listed). 300,000 tested, 0.57% active;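 active = most replicates above 75%; inconclusive = exactly half above 75%; inactive = most below 75%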;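 note: all wells also contain fluconazole at 8 µg/ml as a sub-toxic cotreatment; 0% = median of DMSO wells and 100% = median of geldanamycin control wells; wells of about 8 µL received 7.5 nL stock; the first replicate is given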
HNF4A DNA FP: change in binding of human HNF4 alpha to DNA. AID 1224865. P41235. activity change, % at 10 µM. 360,000 tested, 0.3% active. HNF4a-FITC DNA binding, fluorescence polarization, 1 h; in the data active = activity change above about 30%, passing the limit was not always enough;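 note: controls were the assay level and a saturating level of protein; the project sought stronger binding though the title names inhibitors; some compounds called inactive have numbers as strong as hits; positive values seem to mean higher polarization but the record does not say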
Target sequence (P41235 whole entry, looked up): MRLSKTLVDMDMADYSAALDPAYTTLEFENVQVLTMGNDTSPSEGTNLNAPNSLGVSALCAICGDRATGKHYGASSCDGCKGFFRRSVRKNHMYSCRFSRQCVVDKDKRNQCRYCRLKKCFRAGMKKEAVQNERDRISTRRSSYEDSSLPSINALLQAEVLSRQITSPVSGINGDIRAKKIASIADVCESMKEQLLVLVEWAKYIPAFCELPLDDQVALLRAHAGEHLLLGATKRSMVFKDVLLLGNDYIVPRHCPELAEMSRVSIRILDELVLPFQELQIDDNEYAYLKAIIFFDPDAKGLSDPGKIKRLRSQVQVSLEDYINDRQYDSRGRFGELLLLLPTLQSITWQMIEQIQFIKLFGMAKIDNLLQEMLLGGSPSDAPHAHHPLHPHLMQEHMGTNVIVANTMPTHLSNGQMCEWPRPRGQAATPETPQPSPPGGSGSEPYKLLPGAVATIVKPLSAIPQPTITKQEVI
LANA-H2B inh: blocks KSHV LANA binding to histone H2A/H2B. cell-free LANA-H2A/H2B peptide, fluorescence polarization. inhibition, % (concentration not given with the values). 320,000 tested, 0.6% active. AID 2629; in the data active = inhibition mostly above about 10%, no sharp cut-off; inactive = mostly below about 6.7%;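 note: stock transfer was 7.5 nL into about 10 µL; 0% = median of vehicle wells and 100% = median of positive control wells; one replicate is shown; the record names a cut of 25% in any replicate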
ALR inh: blocks human ALR sulfhydryl oxidase activity | P55789 | purified ALR, DTT oxidation, H2O2 HRP-luminol luminescence | inhibition, % (test concentration not listed) | 290,000 tested, 3.8% active;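 active = mean and each replicate at 75% or more; inconclusive = only one of the two met; inactive = neither met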;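 note: stock transfer was 7.5 nL into about 7.5 µL; 0% = neutral wells and 100% = wells with inactivated enzyme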
Beta2AR agonist: agonists of human beta-2 adrenergic receptor inducing internalization | P07550 | Am2.2-beta2AR cells, FAP receptor internalization, flow cytometry; reference of the scale not given here | response, % (test concentration not listed) | 340,000 tested, 0.43% active;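 active = response above a set limit, near 3 SD of response in nonfluorescent compounds, cut at about 42% in these data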;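 note: stock transfer was 100 nL into about 11 µL; a reference agonist was the positive control; negative values mostly stem from fluorescent compounds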
Target sequence (P07550 whole entry, looked up): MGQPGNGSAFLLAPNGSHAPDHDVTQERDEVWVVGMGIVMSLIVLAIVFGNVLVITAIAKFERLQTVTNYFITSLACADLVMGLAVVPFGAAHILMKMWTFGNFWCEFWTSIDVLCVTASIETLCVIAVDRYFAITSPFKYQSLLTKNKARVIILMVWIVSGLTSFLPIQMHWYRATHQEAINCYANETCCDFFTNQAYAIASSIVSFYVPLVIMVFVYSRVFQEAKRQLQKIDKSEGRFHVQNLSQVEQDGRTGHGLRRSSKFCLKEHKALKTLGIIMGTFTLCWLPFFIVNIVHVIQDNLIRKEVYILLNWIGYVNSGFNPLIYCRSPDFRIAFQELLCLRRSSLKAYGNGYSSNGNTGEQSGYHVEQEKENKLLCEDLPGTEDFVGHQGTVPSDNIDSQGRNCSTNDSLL
RanGTP-Impb inh: inhibitors of RanGTP-importin-beta interaction, primary screen, biochemical, FRET, CFP-Ran, YFP-importin-beta, homogeneous. cell-free CFP-Ran/YFP-importin-beta FRET ratio. inhibition, % (no concentration beside the values). 300,000 tested, 1.1% active. AID 2216;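 active = most replicates above 15%; inconclusive = exactly half above 15%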;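 note: 0% = DMSO wells and 100% = Ran loaded with GDP instead of GTP; wells of about 40 µL received 100 nL stock; the first replicate is given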
Vif TR-FRET: inhibitors of Vif binding to APOBEC3G peptide, primary screen, biochemical, TR-FRET, GST-Vif 1-94, biotin-A3G peptide, dose response retest (AID 1117319); TR-FRET GST-Vif / biotin-A3G peptide binding; higher % means a stronger effect; test concentration not given here; strong numbers were not always called active; inhibition, %; hits with a dose series show IC50 in µM; 260,000 tested, 0.57% active;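 active = above the screen mean plus three standard deviations and confirmed in dose response; inconclusive = results disagree or hit not tested in dose response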;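 note: Vif residues 1-94 fused to GST binding biotinylated APOBEC3G peptide 110-148; 0% = full assay without inhibitor and 100% = GST in place of GST-Vif; retest series ran down from 100 µM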
Starred values were filed as active, the others as inactive; ? = inconclusive; · = no result given; & = joins results of further samples.

SMILES	Calb FLC	HNF4A DNA FP	LANA-H2B inh	ALR inh	Beta2AR agonist	RanGTP-Impb inh	Vif TR-FRET
Cc1ccc(CNC(=O)C(=O)NCC2OCCN2S(=O)(=O)c2ccc(Cl)cc2)cc1 (stereo not given)	-21	-3.8	-3.5	·	-1	3.0	-5%
COc1cccc(CNC(=O)CCS(=O)(=O)Cc2ccc(C)cc2)c1	-3	1.9	-3.3	-1	-1	-0.2	·
CN(C)c1cccc2c(/C=N/O)ccc(N(C)C)c12	24	0.1	-2.2	89*	14	0.2	·
O=C1C(Br)=C(c2ccccc2)C(c2ccccc2)=C1c1ccccc1	·	-1.6	·	·	23	·	-5%
CCN(CC)S(=O)(=O)c1ccc(N2CCc3cc(OC)c(OC)cc3C2)nc1	30	-0.6	0.4	·	6	4.4	-5%
COC(=O)c1c(C)[nH]c(C)c1-c1cccc([N+](=O)[O-])c1	6	-3.0	6.1	16	2	3.1	4%
Cc1cccc2c1nc(-c1ccccc1)n1cnnc21	-5	0.6	-0.1	3	1	1.0	-5%
CC(=O)c1ccc(N2CCN(S(=O)(=O)c3ccc4c(c3)CC(C)N4C(=O)C3CC3)CC2)cc1 (stereo not given)	4	-4.2	-4.9	-2	-6	4.1	-41%
O=C(COC(=O)c1cc(=O)c2ccccc2o1)NCC1CCCCC1	?	-4.4	-0.5	-2	3	-0.3	10%
CCC(=O)NC(O)C(=O)c1ccc(C)cc1 (stereo not given)	-6	3.0	-1.8	-1	-5	-0.4	-2%
CCN1C=CC2=C(C#N)C(N)C(C#N)(C#N)C(c3ccccc3C(F)(F)F)C2C1 (stereo not given)	-1	-4.2	10	36	8	58*	10%
CCOc1ccc(NC(=O)CC2C(=O)NCCN2C(=O)Nc2ccccc2)cc1 (stereo not given)	2	-2.6	-2.7	-3	10	0.6	-5%
OC(CNCc1ccccc1C(F)(F)F)C(F)(F)F (stereo not given)	42	-0.9	5.0	-12	4	0.2	·
COc1ccc(OC)c(S(=O)(=O)N2CCC(C(=O)N3CCN(Cc4ccccc4)CC3)CC2)c1	-5	-0.4	3.0	-1	1	2.0	0%
NNC(=O)CNC(c1ccccc1)c1cc(Br)ccc1NC(=O)CCN1CCOCC1 (stereo not given)	1	0.7	-0.1	5	-2	2.5	2%
O=S(=O)(CC(CN1CCCC1)N1CCCC1)c1ccc2ccccc2c1 (stereo not given)	-3	3.2	-2.1	-1	4	-4.3	13%
COc1ccc(S(=O)(=O)NNC(=O)Nc2ccc(C)cc2)c(OC)c1	-1	-0.9	4.0	6	-3	?	-2%
Nc1ccccc1-c1nnc(SCc2ccccc2Cl)[nH]c1=O	11	-6.6	0.8	31	3	-0.6	64%
CC(=O)Nc1cccc(-n2nnc(SCC(N)=O)n2)c1	6	-3.0	3.9	·	4	-0.8	6%
O=C(CCC1CCCCC1)Nc1c2c(nn1-c1ccc(F)cc1)CS(=O)C2 (stereo not given)	-1	2.5	3.3	4	-5	-0.7	-1%
COc1ccc(-c2nc(C#N)c(N3CCc4ccccc4C3)o2)cc1OC	13	6.0	-0.5	-10	-4	-1.1	-2%
O=C(c1ccccc1)c1cccn1CC(=O)N1CCN(c2ccccc2)CC1	-3	0.0	6.6	97*	-16	1.6	-10%
COc1cc(NC(=O)C2CC(=O)N(CCc3ccc(F)cc3)C2)cc(OC)c1OC (stereo not given)	-5	-2.4	-5.0	-12	3	-0.7	·
Cc1cc(=O)[nH]c(/N=C(\N)Nc2ccc(SC(F)F)cc2)n1	11	2.2	5.4	-7	-5	4.0	0%
Cc1cc(C)n(CC(=O)NNC(=O)COc2ccc(Br)cc2F)n1	·	-2.2	3.8	-1	-2	·	·
Later entries.
SMILES	Calb FLC	HNF4A DNA FP	LANA-H2B inh	ALR inh	Beta2AR agonist	RanGTP-Impb inh	Vif TR-FRET
COCCn1nnnc1C(c1cccs1)N1CCN(c2nc3ccccc3s2)CC1 (stereo not given)	12	1.2	0.8	-15	-3	1.1	-3%&-11%
COc1cc(/C=C/C(=O)O)cc(S(=O)(=O)Nc2ccc(F)cc2)c1OC	0	-4.3	-2.2	0	2	?	9%
CCCC(=O)Nc1cc(C)c2c(=O)oc3ccccc3c2n1	3	4.6	5.3	-1	-12	?	·
COc1cccc(/C=C/C(=O)OCC(=O)NCCC2=CCCCC2)c1OC	·	-0.9	0.0	4	-4	·	·
N=C1c2ccccc2CN1NC(=O)c1cccc(S(=O)(=O)N2CCOCC2)c1	-7	0.8	-2.2	·	-1	-0.3	·
CC1=NN(C(=O)c2ccc(Cn3nc(C)c([N+](=O)[O-])c3C)cc2)C(O)(C(F)(F)F)C1 (stereo not given)	-9	-1.0	-0.5	-2	9	3.2	-2%
CCN(CC(=O)Nc1ccc(NC(C)=O)cc1)C(=O)c1cn(-c2ccccc2)nc1-c1cccs1	·	0.1	·	·	-1	·	-8%
O=C(COC(=O)c1ccccc1S(=O)(=O)N1CCCCC1)NCC(F)(F)F	8	0.7	-0.6	-40	-7	?	-1%
O=C(Nc1cccc([N+](=O)[O-])c1)Nc1ccc(Cl)cn1	-9	-0.3	3.4	-6	-5	1.0	?
Nc1ccc(Sc2ccccc2Cl)nc1	-3	9.9	-2.4	9	-4	1.0	·
Cc1oc2c(CN3CCCCC3C)c(O)ccc2c(=O)c1-c1ccccc1 (stereo not given)	7	1.7	1.7	-25	8	0.1	-4%
CCOC(=O)c1c(C)[nH]c(C(=O)C(C)OC(=O)c2oc3ccccc3c2COC)c1C (stereo not given)	6	0.4	4.1	6	-4	2.4	5%
Cc1ccc(S(=O)(=O)N2CCOC23CCN(C(=O)c2cc(Cl)ccc2Cl)CC3)cc1	3	-0.1	-2.7	0	-7	-2.2	·
Cc1cccc(Nc2nnc(SC/C(O)=C(\C#N)c3nc4ccccc4[nH]3)s2)c1C	15	12	-1.8	-1	22	26*	12%
CC(=O)Nc1ccc(S(=O)(=O)NC2=NCN(CCOC(=O)c3ccccc3)CN2)cc1	5	-4.4	0.7	-1	2	1.1	-5%
N=c1nc(N)nc2n1NC(c1ccc(F)cc1)=CS2	12	0.0	-6.1	-99	12	2.0	16%
O=C(Nc1ccc(Cl)c(Cl)c1)OCc1cnc(Cl)s1	?	-2.9	·	·	5	-0.5	2%
COc1ccccc1N1CCN(C(=O)CNC(=O)c2cn(-c3ccccc3OC)c(=O)c3ccccc23)CC1	25	-0.8	-2.6	·	2	8.1	9%
COC(=O)CSc1nc(N2CCOCC2)c2c(c1C#N)CCCC2	16	-1.2	4.0	-5	-1	0.8	1%
O=C(COc1ccccc1Cl)NC(=O)NC1CCCC1	·	-1.4	1.0	-15	-4	·	22%
CC(C)(C)c1ncc(S(=O)(=O)c2ccc(C(F)(F)F)cn2)c(N)n1	-7	3.6	4.3	·	-15	-0.3	-4%
Cc1nonc1OCCCNc1ccc([N+](=O)[O-])cc1Cl	2	4.7	-3.6	-4	4	?	-3%
CCCN(CCC)c1nc(C#N)nc(N(CCC)CCC)n1	7	3.7	0.3	-30	3	1.1	·
Cc1ccc(-c2ccc(=O)n(CC(=O)Nc3cccc(C(=O)N4CCN(C)CC4)c3)n2)cc1	-16	-2.9	6.5	·	-9	-1.7	16%
O=C(CSc1nnc2ccccn12)N1CCc2ccccc21	-2	0.4	-0.5	-11	4	-0.1	-5%
Other results
SMILES	Calb FLC	HNF4A DNA FP	LANA-H2B inh	ALR inh	Beta2AR agonist	RanGTP-Impb inh	Vif TR-FRET
CCOC(=O)c1c(-c2cccs2)csc1NC(=O)CN(CC)CC	46	2.1	1.2	-1	12	5.3	-8%
COc1ccccc1N(CC(=O)NC1CCCC1)C(=O)CCC(=O)Nc1cc(C)on1	-6	31	-2.1	3	-8	-2.8	-2%
COC(=O)Nc1ccc(Oc2ccccc2)cc1	-18	-2.0	-1.4	-4	13	-1.6	-4%
CC(=O)c1ccc(Nc2cc(C)nc3ccc(C)cc23)cc1	-4	5.6	-7.1	-4	7	?	·
Cc1ccccc1C(=O)N1CCC(C(=O)Nc2ccc(S(=O)(=O)N(C)C(C)C)cc2)CC1	-6	0.1	-0.8	-12	-2	-5.6	5%
CCn1nc2cc(C(=O)NCc3cc(C(F)(F)F)cc(C(F)(F)F)c3)ccc2c1OC	17	-3.8	2.7	9	-8	4.3	2%
COc1ccc(C(=O)C[n+]2ccc(N(C)C)cc2)cc1	-9	-3.6	-1.9	0	0	1.8	1%
CCN(CC(=O)Nc1ccccc1SC)Cc1nc2ccccc2c(=O)[nH]1	-8	-0.6	2.9	-2	-19	0.7	11%
CCc1ccccc1NC(=S)N(CCN(C)C)Cc1cccs1	-6	3.2	-6.5	·	2	0.2	4%
COc1cccc(C2CC(c3ccc(C(C)C)cc3)n3nc(N)nc3N2)c1 (stereo not given)	-3	6.0	1.1	-6	-2	-3.9	-4%
O=C(CCCN1C(=O)c2ccccc2C1=O)NCCCn1ccnc1	5	0.1	1.5	·	-12	-0.7	-7%
COC(=O)c1c(C(=O)OC)c(-c2ccc(C(C)(C)C)cc2)n2c1CS(=O)C2 (stereo not given)	-2	-1.5	1.7	-22	3	1.6	·
COc1ccc(CCN(C(=O)C(F)(F)F)C(C(=O)NC2CCCCC2)c2ccc(C)s2)cc1 (stereo not given)	-12	-0.9	-3.2	4	12	0.3	-5%
Cc1ccc(C2CC(c3cccc(C)c3)n3nc(N)nc3N2)cc1 (stereo not given)	4	-0.2	0.7	44	-12	-5.3	10%
COC(=O)C1=C(C)N2C(=O)CSC2=NC1c1ccc2c(c1)OCO2 (stereo not given)	-1	·	2.3	-5	·	4.7	·
O=C(c1cccc(F)c1)N1CCC(N2CCCCCC2)CC1	-7	1.8	5.3	-1	1	?	?
Cn1c(SCCCC(=O)c2ccc(Br)cc2)nnc1-c1ccncc1	-13	2.4	-4.0	-3	2	6.9	-170%
COc1ccc(C2=NOC(Cn3nc(C(=O)NCc4ccco4)cc3-c3ccccc3)C2)cc1 (stereo not given)	3	7.6	0.8	2	8	-2.3	·
CCOc1ccccc1NC(=O)c1nc(-c2ccccc2)oc1C	7	1.1	-0.6	·	1	?	-9%

From PubChem
